# From PubChem
# FGF22 binding: binders of recombinant human FGF22 by thermal shift; SYPRO orange fluorescence; percent of sucrose octasulfate shift, DMSO zero; hit rate 1.5% among 340,000; calls only at 9.99 µM; Q9HCT0;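 active = melting point raised past a set limit in the mean and every replicate; three in four hits are not shown here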
# Target sequence (Q9HCT0 whole entry, looked up): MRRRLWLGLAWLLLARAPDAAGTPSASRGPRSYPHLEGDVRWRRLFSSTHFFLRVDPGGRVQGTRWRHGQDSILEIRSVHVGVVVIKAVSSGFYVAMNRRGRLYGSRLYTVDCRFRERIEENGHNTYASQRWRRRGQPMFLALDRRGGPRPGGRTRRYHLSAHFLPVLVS
# Ecoli rRNA inh: inhibitors of bacterial rRNA selective over humanized ribosomes; GFP signal change (wild-type ribosome), % (no concentration beside the values); E. coli WT GFP vs humanized-ribosome RFP mutants, fluorescence, 24 h; hits give low values; DMSO median 0, no signal -100; hit rate 1.6% among 350,000;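 active = significant combined selectivity score with lowered wild-type GFP, culture density cut under 30%, mutant RFP and density less affected; inactive = any of these conditions unmet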; note: one replicate is shown; some compounds called inactive have numbers as strong as hits
# Ecoli rRNA inh OD600: second read-out of Ecoli rRNA inh, no call of its own (marks repeat the call); OD600 change, %; measured here: OD600 growth;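 optical density of the mix in the first replicate; 0 = DMSO median and -100 = no signal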
# Ecoli rRNA inh RFP: recorded beside Ecoli rRNA inh, whose call it bears; RFP signal change, %; measured here: RFP humanized mutant strains;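 first replicate; 0 = DMSO median and -100 = no signal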
# * hit, by the source's call; i = inactive; / = not tested or not shown; + = active, no number. The list is partial; count on the stated rates, not on these rows.
SMILES,FGF22 binding,Ecoli rRNA inh,Ecoli rRNA inh OD600,Ecoli rRNA inh RFP
O=C(N[C@@H]1C=C[C@H](CC(=O)N2CCCCC2)O[C@@H]1CO)c1cccc(F)c1,+,3,4,0.1
COc1ccc(S(=O)(=O)Nc2ccc3c(c2)C(=O)N([C@@H](C)CO)C[C@@H](C)[C@@H](CN(C)C(=O)Nc2c(C)noc2C)OCCCC[C@@H](C)O3)cc1,i,-1,2,3.4
C[C@@H]1CN([C@@H](C)CO)C(=O)c2cc(NS(=O)(=O)c3ccc(Cl)cc3)ccc2O[C@@H](C)CCCCO[C@H]1CN(C)Cc1ccncc1,i,0,-9,3.3
C/C=C/c1ccc([C@H]2[C@@H](CO)N(C(C)=O)[C@H]2CN(C)C(=O)c2ccccn2)cc1,i,-1,3,-0.3
O=C(C[C@@H]1CC[C@@H]2[C@H](COC[C@H](O)CN2C(=O)c2ccccc2F)O1)NCc1ccc(Cl)c(Cl)c1,i,-3,-11,1.9
O=C(Nc1ccccc1)N1CCCCN2[C@H](C1)[C@H](c1ccc(Br)cc1)[C@@H]2CO,i,-9,-10,-3.2
C[C@@H]1CCCCO[C@@H](CN(C)Cc2ccc(C(=O)O)cc2)[C@@H](C)CN([C@@H](C)CO)C(=O)c2cc(NS(=O)(=O)c3cn(C)cn3)ccc2O1,i,3,3,1.2
C[C@@H]1CN([C@H](C)CO)C(=O)c2cc(C#Cc3cccnc3)cnc2O[C@@H]1CN(C)C,i,4,15,1.2
O=C(Nc1ccccc1)N1C[C@@H]2[C@H](c3ccccc31)[C@@H](CO)N2C(=O)c1ccncc1,i,4,5,-3.1
C[C@@H]1CN([C@@H](C)CO)C(=O)c2cccc(NC(=O)Nc3ccc(C(F)(F)F)cc3)c2O[C@H]1CN(C)Cc1ccc2c(c1)OCO2,i,-15,-16,-6.0

# Next part (4 carried over from the part before).
SMILES,FGF22 binding,Ecoli rRNA inh,Ecoli rRNA inh OD600,Ecoli rRNA inh RFP
C[C@@H]1CCCCO[C@@H](CN(C)Cc2ccc(C(=O)O)cc2)[C@@H](C)CN([C@@H](C)CO)C(=O)c2cc(NS(=O)(=O)c3cn(C)cn3)ccc2O1,i,3,3,1.2
C[C@@H]1CN([C@H](C)CO)C(=O)c2cc(C#Cc3cccnc3)cnc2O[C@@H]1CN(C)C,i,4,15,1.2
O=C(Nc1ccccc1)N1C[C@@H]2[C@H](c3ccccc31)[C@@H](CO)N2C(=O)c1ccncc1,i,4,5,-3.1
C[C@@H]1CN([C@@H](C)CO)C(=O)c2cccc(NC(=O)Nc3ccc(C(F)(F)F)cc3)c2O[C@H]1CN(C)Cc1ccc2c(c1)OCO2,i,-15,-16,-6.0
C[C@H](CO)N1C[C@H](C)[C@H](CN(C)S(=O)(=O)c2ccc(Cl)cc2)OCCCC[C@H](C)Oc2ccc(NS(=O)(=O)c3cn(C)cn3)cc2C1=O,i,-3,-10,2.6
O=C(C1CCOCC1)N1CC[C@@H]2[C@H]1c1cc(Br)ccc1N[C@@H]2CO,i,5,5,-3.2
COCC(=O)N1CC2(C1)[C@H](c1ccc(-c3ccc(F)cc3)cc1)[C@H](CO)N2C(C)=O,i,-2,7,-0.5
COc1ccc2c3c(n(C)c2c1)[C@@H](CO)N(C(=O)C1CCCC1)CC31CCN(C(=O)CN(C)C)CC1,i,5,-1,-0.7
CCS(=O)(=O)NCC[C@@H]1CC[C@@H](NC(=O)C2CCOCC2)[C@@H](CO)O1,i,0,6,0.4
O=C(Cc1ccccn1)NCC[C@H]1CC[C@@H](NS(=O)(=O)c2ccc(F)cc2)[C@@H](CO)O1,i,5,-1,1.7
COc1ccc(S(=O)(=O)Nc2cccc3c2O[C@@H](CN(C)S(=O)(=O)c2ccc(F)cc2)[C@@H](C)CN([C@H](C)CO)C3=O)cc1,i,-1,5,-0.8
COc1ccc(CN(C)C[C@H]2Oc3c(NC(=O)C4CC4)cccc3C(=O)N([C@@H](C)CO)C[C@H]2C)cc1,i,5,11,-0.2
COCCN1C(=O)[C@H]2C[C@@]13O[C@H](c1ccccn1)N=C3CC1c3ccccc3C[C@@]12C (stereo partly drawn),/,5,6,4.0
CCCNC(=O)N1[C@H](CO)[C@H](c2ccccc2)[C@H]1CNC(=O)c1ccccc1,i,-1,0,-0.2

# An excerpt from above in order of the Ecoli rRNA inh value, falling:
canonical_smiles | FGF22 binding | Ecoli rRNA inh | Ecoli rRNA inh OD600 | Ecoli rRNA inh RFP
COc1ccc2c3c(n(C)c2c1)[C@@H](CO)N(C(=O)C1CCCC1)CC31CCN(C(=O)CN(C)C)CC1 | i | 5 | -1 | -0.7
O=C(Nc1ccccc1)N1C[C@@H]2[C@H](c3ccccc31)[C@@H](CO)N2C(=O)c1ccncc1 | i | 4 | 5 | -3.1
COCC(=O)N1CC2(C1)[C@H](c1ccc(-c3ccc(F)cc3)cc1)[C@H](CO)N2C(C)=O | i | -2 | 7 | -0.5

# More entries
SMILES,FGF22 binding,Ecoli rRNA inh,Ecoli rRNA inh OD600,Ecoli rRNA inh RFP
C[C@@H]1CN([C@@H](C)CO)C(=O)c2cc(-c3cccc(C#N)c3)cnc2O[C@H]1CN(C)Cc1cccnc1,i,0,7,0.4
C[C@@H]1CN([C@@H](C)CO)C(=O)Cc2cc(NS(=O)(=O)c3cccs3)ccc2O[C@@H]1CN(C)C(=O)Nc1ccc2c(c1)OCO2,i,1,-14,-0.8
C[C@H]1CN([C@@H](C)CO)S(=O)(=O)c2ccc(C3=CCCC3)cc2O[C@H]1CN(C)C(=O)CC1CC1,i,-3,-5,0.0
Cc1noc(C)c1S(=O)(=O)N(C)C[C@H]1OCCCC[C@H](C)Oc2ccc(NS(=O)(=O)c3cccs3)cc2C(=O)N([C@H](C)CO)C[C@H]1C,i,4,1,1.2
C/C=C/c1ccc2c(c1)O[C@@H](CN(C)C(=O)c1cccc(F)c1)[C@@H](C)CN([C@H](C)CO)S2(=O)=O,i,-2,-17,1.3
CCCNC(=O)C[C@H]1CC[C@H]2[C@@H](COC[C@H](O)CN2C(=O)Nc2ccccc2OC)O1,i,4,13,-0.7
C[C@H]1CN([C@@H](C)CO)C(=O)c2cc(NS(=O)(=O)c3ccc(Cl)cc3)ccc2O[C@H]1CN(C)Cc1ccc(-c2ccccc2)cc1,i,5,11,-1.3
C[C@H]1CN([C@@H](C)CO)C(=O)c2cc(NS(=O)(=O)c3ccc(Cl)cc3)ccc2O[C@H]1CN(C)C(=O)Nc1ccc(F)cc1,i,0,2,1.6
CO[C@@H]1CN(C)C(=O)c2ccc(NC(=O)c3cccc(F)c3)cc2OC[C@@H](C)N(C)C[C@@H]1C,i,0,1,-0.7
O=C(N[C@@H]1CC[C@@H](CCn2cc(C3CC3)nn2)O[C@@H]1CO)c1cccnc1,i,0,-1,-0.6
CO[C@@H]1CN(C)C(=O)c2ccc(NC(=O)Nc3ccc(F)cc3)cc2OC[C@@H](C)N(C(=O)c2ccc(F)cc2)C[C@H]1C,i,-7,-10,13
C[C@@H](NC(=O)C[C@@H]1C[C@@H]2c3cc(NC(=O)CN(C)C)ccc3O[C@@H]2[C@@H](CO)O1)c1ccccc1,i,0,2,1.0
COc1ccc(S(=O)(=O)Nc2ccc3c(c2)C(=O)N([C@@H](C)CO)C[C@@H](C)[C@@H](CN(C)C(=O)C2CCCCC2)OCCCC[C@H](C)O3)cc1,i,-4,-11,-1.4
CC(C)CC#Cc1ccc2c(c1)O[C@@H](CN(C)C(=O)c1cccc(F)c1)[C@@H](C)CN([C@@H](C)CO)S2(=O)=O,i,2,1,2.3
C[C@H]1CN([C@@H](C)CO)C(=O)c2cc(NC(=O)C3CC3)ccc2O[C@H]1CN(C)Cc1ccncc1,i,0,14,-1.2
Cc1cccc(NC(=O)Nc2ccc3c(c2)C(=O)N(C)[C@H]2CC[C@@H](CC(=O)NCc4ccccc4Cl)O[C@@H]2CO3)c1,i,-3,-10,4.8
Cc1noc(C)c1NC(=O)Nc1ccc2c(c1)C(=O)N([C@@H](C)CO)C[C@@H](C)[C@@H](CN(C)CC1CC1)OCCCC[C@@H](C)O2,i,5,8,-1.7
COc1ccccc1NC(=O)N[C@H]1CC[C@H](CCNS(=O)(=O)c2ccc(Cl)cc2)O[C@H]1CO,i,-12,-11,7.8
C[C@H]1CN([C@@H](C)CO)C(=O)Cc2cc(NC(=O)CCCCCC(=O)Nc3ccccc3N)ccc2O[C@H]1CN(C)Cc1ccccc1,i,-6,-17,-1.7
C[C@@H]1CCCCO[C@@H](CN(C)C(=O)Nc2ccc(C(F)(F)F)cc2)[C@H](C)CN([C@H](C)CO)C(=O)c2cc(NC(=O)Cc3ccccc3)ccc2O1,i,2,1,-0.2
O=C1CNC[C@@H]2[C@H](c3ccc(C#Cc4cccnc4)cc3)[C@@H](CO)N12,i,4,9,1.0
C[C@@H]1CN([C@H](C)CO)C(=O)c2cc(NC(=O)Nc3ccc(C(F)(F)F)cc3)ccc2O[C@H]1CN(C)S(=O)(=O)c1ccc(F)cc1,i,-3,0,-3.4
C[C@@H]1CN([C@@H](C)CO)C(=O)c2cccc(NS(=O)(=O)c3ccc(F)cc3)c2O[C@@H]1CN(C)C(=O)Nc1ccc(F)cc1,i,-3,-17,1.5
CN(C)C(=O)C[C@H]1C=C[C@@H](NC(=O)c2ccc(F)cc2)[C@H](CO)O1,i,2,2,-1.2
CO[C@@H](CN(C)Cc1ccc(-c2ccccn2)cc1)[C@@H](C)CN(C(=O)Nc1ccc(F)cc1)[C@@H](C)CO,i,-3,0,-2.1
C[C@@H]1CN([C@H](C)CO)C(=O)c2cccc(NC(=O)Nc3ccccc3)c2O[C@H]1CN(C)Cc1ccc(Cl)c(Cl)c1,i,-5,-13,0.7
C[C@@H]1CN([C@H](C)CO)C(=O)c2cc(NS(=O)(=O)c3ccc(Cl)cc3)ccc2O[C@@H](C)CCCCO[C@@H]1CN(C)CC1CCCCC1,i,-7,-11,19
COC(=O)[C@]12C[C@H](CC(=O)N3CCOCC3)C(=O)N(Cc3ccccc3)C1=C[C@H](C1CCCC1)O[C@@H]2C,i,2,-2,-0.2
C[C@@H]1CN([C@H](C)CO)S(=O)(=O)c2ccc(/C=C/c3ccccc3)cc2O[C@H]1CN(C)C(=O)NC1CCCC1,i,-8,-10,0.1
C[C@@H](NC(=O)C[C@@H]1CC[C@@H](NC(=O)C2CC2)[C@@H](CO)O1)c1ccccc1,i,3,1,-2.8
O=C(C[C@H]1CC[C@@H](NS(=O)(=O)c2ccc(F)cc2)[C@H](CO)O1)N1CCN(c2ccccc2)CC1,i,0,0,1.7
C[C@H](CO)N1C[C@H](C)[C@H](CN(C)Cc2ccccc2)Oc2c(NC(=O)Nc3ccc4c(c3)OCO4)cccc2C1=O,i,1,7,-0.3
COc1ccc(NC(=O)N(C)C[C@@H]2Oc3ccc(NS(C)(=O)=O)cc3C(=O)N([C@H](C)CO)C[C@H]2C)cc1,i,3,7,-0.2
CCCNC(=O)N(C)C[C@@H]1Oc2cc(C3=CCCCC3)ccc2S(=O)(=O)N([C@@H](C)CO)C[C@H]1C,i,2,-8,-1.0
O=C(C[C@H]1CC[C@@H](NC(=O)Nc2ccc(C(F)(F)F)cc2)[C@H](CO)O1)NCc1cc(F)cc(F)c1,i,-4,6,0.1
CN1c2ccc(-c3ccccc3)cc2[C@H]2[C@H](CCN2C(=O)c2ccc3c(c2)OCO3)[C@H]1CO,i,-2,-33,8.9
C[C@@H]1CN([C@@H](C)CO)C(=O)c2cc(C#CC3CCCCC3)cnc2O[C@H]1CN(C)Cc1cncnc1,i,3,3,3.1
C[C@H](CO)N1C[C@H](C)[C@@H](CN(C)Cc2cccnc2)Oc2cc(Br)ccc2S1(=O)=O,i,-11,-10,-0.3
C[C@@H]1CN([C@@H](C)CO)C(=O)Cc2cc(NC(=O)Cn3cnnn3)ccc2O[C@@H]1CN(C)Cc1ccccc1,i,3,22,0.0
C[C@@H]1CN([C@H](C)CO)C(=O)c2cccc(NC(=O)C3CCCCC3)c2O[C@H]1CN(C)CC1CC1,i,-2,-17,-0.1
CCC(=O)Nc1ccc2c(c1)OC[C@@H](C)N(CC1CCOCC1)C[C@H](C)[C@H](OC)CN(C)C2=O,i,4,1,1.2
N#C[C@@H]1[C@H](c2ccccc2-c2ccccc2)[C@@H](CO)N1C(=O)Cc1cccnc1,i,2,-1,0.0
COCC#Cc1cnc2c(c1)C(=O)N([C@H](C)CO)C[C@H](C)[C@@H](CN(C)Cc1ccc(F)cc1)O2,i,-3,4,-0.5
C[C@@H]1CN([C@H](C)CO)C(=O)c2cccc(N(C)C)c2O[C@H]1CN(C)Cc1ccc(Oc2ccccc2)cc1,i,-2,-2,-2.3
C[C@H]1CN([C@@H](C)CO)S(=O)(=O)c2ccc(-c3ccc(F)cc3)cc2O[C@H]1CN(C)Cc1ccccc1C(=O)O,i,-3,-1,7.4
C[C@@H]1CCCCO[C@H](CN(C)C(=O)CCC(F)(F)F)[C@@H](C)CN([C@@H](C)CO)C(=O)c2cc(NC(=O)CCCN(C)C)ccc2O1,i,-2,7,-3.4
C[C@H](CO)N1C[C@H](C)[C@@H](CN(C)S(=O)(=O)c2ccc(Cl)cc2)Oc2ccc(NC(=O)CCC(F)(F)F)cc2CC1=O,i,-2,-7,3.1
CC(C)NC(=O)Nc1ccc2c(c1)C(=O)N([C@H](C)CO)C[C@H](C)[C@@H](CN(C)C)O2,i,0,7,-1.0
CC(C)NC(=O)N(C)C[C@H]1Oc2ccc(NS(=O)(=O)c3cn(C)cn3)cc2CC(=O)N([C@H](C)CO)C[C@H]1C,i,5,1,-3.8

# Entries listed above that bear a hit mark in FGF22 binding.
SMILES,FGF22 binding,Ecoli rRNA inh,Ecoli rRNA inh OD600,Ecoli rRNA inh RFP
O=C(N[C@@H]1C=C[C@H](CC(=O)N2CCCCC2)O[C@@H]1CO)c1cccc(F)c1,+,3,4,0.1
